Compound activity from PubChem.
PrP 5UTR inh = inhibition of PrP 5' UTR reporter expression. cell-based PrP 5' UTR mRNA reporter, plate reader. AID 488862, 2010. actives 0.35% (n = 340,000). inhibition, % (concentration not given with the values);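 active = every replicate at 50% or more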;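 also: 0 = median of the neutral control wells; tested in H4 reporter cells; numbers are from one replicate; inactives centre near -14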
Bead autofluor = counter-screen for toxin protease inhibitors: compound fluorescence. AID 624483. actives 3.1% (n = 360,000). fluorescence intensity (concentration not given with the values). compound autofluorescence counterscreen, microsphere flow cytometry; hits give high values;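 active = at least 3 SD above the mean of all compounds, about 16000 in these data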;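 also: 100 nL of 1 mM stock went into each well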
BJeLR viability = MLPCN primary cell-based screen for lethality selective to Ras in HRASV12 cells | actives 0.17% (n = 300,000) | inhibition, % (concentration not given with the values) | BJeLR (HRASV12) viability, CellTiter-Glo ATP luminescence, 48 h; reference of the scale not given here;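 active = replicate mean above 50%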;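 also: 50 nL library stock added to about 25 µL; numbers are from one replicate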
Mtb hypoxia rep = PubChem AID 1159583. M. tuberculosis hypoxia-regulated fluorescent reporter, fluorescence. fluorescence inhibition, % (no concentration beside the values). actives 0.1% (n = 300,000);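 active = 35 to 45% if threefold the growth effect, above 45% if 1.5-fold the growth effect; inactive = the rest, general growth blockers included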;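 also: wells of about 50 µL received 100 nL stock; 0% = vehicle wells and 100% = reference inhibitor wells; whole bacteria with a GFP reporter of the hypoxia response; strong numbers were not always called active; many hits fall short of the cut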
Sa RN4220 lethal = growth inhibition of S. aureus RN4220, primary screen, OD600; inhibition, % (test concentration not listed); actives 0.33% (n = 330,000); 16 h;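 active = z-score of -3 or lower and OD600 up to 0.18 on both plates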;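 also: plate controls were untreated cells for no effect and reference antibiotic for full effect; stock transfer was 100 nL into about 80 µL; one replicate is shown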
ugtP null kill = growth inhibition of ugtP-null S. aureus, primary screen, RN4220 ugtP deletion, OD600; 16 h; some inactives read as strong as hits; actives 0.54% (n = 330,000); growth inhibition, % (test concentration not listed);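 active = z-score under -3 and OD600 up to 0.15 on both plates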;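 also: plate controls were untreated wells for no effect and antibiotic for full effect; wells of about 80 µL received 100 nL stock; the first replicate is given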
Mtb hypoxia rep growth = recorded beside Mtb hypoxia rep, whose call it bears; growth inhibition, %; measured here: M. tuberculosis growth (absorbance);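 0% = vehicle and 100% = reference antibiotic; read after six days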
* marks the source's active call; other numbers are inactive results; x = no result given.

smiles	PrP 5UTR inh	Bead autofluor	BJeLR viability	Mtb hypoxia rep	Mtb hypoxia rep growth	Sa RN4220 lethal	ugtP null kill
CCc1nc(CN2CCN(c3ccc(C(F)(F)F)cn3)CC2)c(C)[nH]1	-38.8	6247	7.3	-4.3	5.4	4.2	11.4
O=C(NCc1ccc2c(c1)OCO2)C1CCCN1C(=O)Nc1ccc(Cl)cc1 (configuration not stated)	-4.9	2998	-2.8	8.8	6.6	3.5	4.1
CCOC(=O)C1C(c2ccccc2Cl)NC(=O)N(C)C1(O)C(F)(F)F (configuration not stated)	-2.1	16952*	5.0	4.2	-2.2	5.3	4.6
O=C(CSc1nc2ccccc2s1)Nc1ccc(Cl)c(C(=O)O)c1	-32.7	4046	1.6	-5.5	-11.6	-0.4	-1.5
COc1ccc(S(=O)(=O)Nc2cccc(F)c2C)cc1C(=O)N1CCOCC1	-25.3	3437	12.3	6.9	-0.6	8.6	3.8
Cc1ccc(N(C(=O)c2ccco2)C(C(=O)NC2CCCC2)c2ccco2)c(C)c1 (configuration not stated)	-6.3	4536	3.2	3.7	4.1	0.4	6.4
CC[C@@]12C(=O)N(c3cccc(Cl)c3)C(=O)N1C(c1cccc(C)c1)C1C(=O)N(Cc3ccccc3)C(=O)C12 (some centres not stated)	x	x	x	17.0	7.2	4.9	3.4
Cc1cccc(C)c1NC(=O)COC(=O)c1ccc(N2CCCC2)c([N+](=O)[O-])c1	-7.7	2630	-0.1	4.0	6.1	7.1	0.6
O=C(Nc1ccc(F)cc1Cl)c1ccc2c(=O)n3c(nc2c1)CCC3	-78.9	4470	1.0	4.9	-3.0	4.4	5.2
CN(CC(=O)Nc1ccccc1Br)C(=O)c1cccc(S(=O)(=O)NCc2ccccc2)c1	9.8	5524	-2.9	-4.0	0.0	-0.2	-3.9
Cn1c(CCN2CCOCC2)nc2cc(NC(=O)COc3ccc([N+](=O)[O-])cc3)ccc21	-10.4	5470	7.1	14.8	2.4	1.4	2.3
C/C(Cn1nnc2ccccc21)=N\NC(=O)c1ccc(Br)cc1	-9.7	2180	-7.7	x	x	x	x
CCN(CC)CCCNc1ncnc2scc(-c3ccc(F)cc3)c12	-21.2	4017	-1.0	11.4	10.4	2.0	8.0
C=CCOC(=O)C1=C(C)OC(N)=C(C#N)C1c1ccoc1 (configuration not stated)	-20.9	8217	16.1	-2.8	9.5	2.8	1.6
CC(C)[C@H](NC(=O)C1CCCC1)c1nc2ccccc2[nH]1	-8.3	4600	1.2	-9.7	0.6	8.2	2.7
CC(C)C[C@H](NC(=O)c1[nH]cnc1C(=O)N[C@@H](C)c1ccccc1)C(=O)OCc1ccccc1	-16.1	2980	7.8	x	x	x	x
CC1C(=O)N2CCCc3cc(NC(=O)C(=O)NCCc4ccccc4)cc1c32 (configuration not stated)	-14.7	4380	0.0	-2.8	7.4	1.2	0.7
Cc1cccc(OCC(=O)NCC(=O)NN=Cc2c(C)[nH]c3ccccc23)c1	x	x	x	1.0	6.2	5.3	7.8
Cc1ccc(CCNC(=O)C2CCN(C(=O)N(C)C)CC2)cc1	-9.0	8715	-8.0	-7.4	5.1	5.0	1.6
COCc1cc(N2CCOCC2)nc(-c2ccccc2)n1	-22.8	4701	-13.6	4.8	5.4	-0.5	6.0
O=C(N/N=C/c1ccco1)c1cc(-c2ccc(Cl)cc2)n[nH]1	-20.2	5276	0.3	x	x	x	x
CCN1CCN(CCCOc2ccccc2-c2ccccc2)CC1	-13.4	4634	x	25.1	13.3	3.3	2.6
CC(=O)N/C(=C/c1ccc(OS(=O)(=O)c2ccc(C)cc2)cc1)C(=O)Nc1ccc(C(=O)O)cc1	-15.5	5534	-1.6	18.4	12.6	0.1	1.2
CC(=O)N1CCc2cc(C(=O)CN3CCC(C)CC3)ccc21	-9.5	5560	3.0	1.2	8.9	-0.3	-7.2
COc1ccc(CN=CC2=C(O)CNC2=O)cc1OC	-2.6	4768	5.9	x	x	1.1	3.2

Whole records as entered above:
Cc1ccc(CCNC(=O)C2CCN(C(=O)N(C)C)CC2)cc1 as listed: PrP 5UTR inh: -9.0; Bead autofluor: 8715; BJeLR viability: -8.0; Mtb hypoxia rep: -7.4; Mtb hypoxia rep growth: 5.1; Sa RN4220 lethal: 5.0; ugtP null kill: 1.6
COCc1cc(N2CCOCC2)nc(-c2ccccc2)n1 as listed: PrP 5UTR inh: -22.8; Bead autofluor: 4701; BJeLR viability: -13.6; Mtb hypoxia rep: 4.8; Mtb hypoxia rep growth: 5.4; Sa RN4220 lethal: -0.5; ugtP null kill: 6.0

Next part
Fields – PrP 5UTR inh, Bead autofluor, BJeLR viability, Mtb hypoxia rep, Mtb hypoxia rep growth, Sa RN4220 lethal, ugtP null kill
> O=C(CSCc1ccc(F)cc1)NCc1ccc(F)cc1
 : -6.5, 4631, 2.5, 2.6, 10.3, 0.6, 5.8
> CC1=C(C(=O)OC(C)C)C(c2ccc(F)cc2)NC(=O)N1 (configuration not stated)
 : -15.3, 16191*, 2.6, 0.7, 7.3, 5.8, 5.7
> CCOC(=O)/C(C#N)=C\c1c(OCC)n(CC)c2ccccc12
 : -11.0, 10226, 7.1, 8.1, -1.8, 1.7, -18.2
> O=C(COc1ccc(Cl)cc1)N1CCN(c2cccc(C(F)(F)F)c2)CC1
 : -8.6, 2559, 2.2, x, x, -9.5, -28.8
> CCc1noc(C)c1C(=O)OCC(=O)NCc1ccc(Cl)cc1
 : -19.0, 3249, x, 4.6, 6.6, -2.2, -8.0
> COCC(C)n1c(SCC(=O)c2cc(C)n(C)c2C)nc2ccccc2c1=O (configuration not stated)
 : -3.4, 2853, 15.2, -5.7, 2.0, 4.0, 5.1
> Cc1ccc(N/C=C/C(=O)c2ccc(C)cc2)cc1
 : -61.9, 2973, -9.7, x, x, x, x
> Cc1ccc(C(=O)N/C(=C/c2ccco2)C(=O)NCCCn2ccnc2)cc1
 : -29.1, 9001, -14.3, 2.6, 0.6, 1.5, 2.2
> c1cn2cc(CN3CCOCC3)nc2s1
 : x, 10416, 9.0, 3.4, 0.8, 1.7, 0.3
> CS(=O)(=O)N(CC(=O)Nc1c(F)cccc1F)c1cccc([N+](=O)[O-])c1
 : -16.5, 2892, -7.6, 7.4, 1.9, -16.9, -3.7
> CN(C)C1(CNC(=O)Nc2ccc(Cl)c(Cl)c2)CCCCC1
 : -7.4, 4537, 4.2, x, x, -9.4, 30.3
> Cc1cccc([C@@H]2[C@@H]3C(=O)N(Cc4ccccc4)C(=O)[C@@H]3[C@]3(CC(C)C)C(=O)N(c4cccc(F)c4)C(=O)N23)c1
 : -21.0, 3775, 3.1, x, x, x, x
> COc1ccc(C=NNC(=O)c2ccc(Br)cc2)c(OC)c1
 : x, x, x, 6.8, 3.0, 3.4, 4.3
> Fc1cccc(Cl)c1CSc1nnc(-c2ccncc2)o1
 : -58.2, 3073, 4.7, 13.1, 9.4, 2.8, 20.9
> CCCSc1nnc2[nH]c(=O)cc(N)n12
 : -7.7, 2670, 4.5, x, x, 0.7, -5.3
> CCOc1cc(/C=C2/NC(=O)N(Cc3ccccc3F)C2=O)ccc1O
 : -1.5, 4719, 5.6, x, x, 2.5, -7.1
> COc1ccccc1N1C(=O)CC(N2CCN(c3ccc(Cl)cc3)CC2)C1=O (configuration not stated)
 : -20.8, 3512, -0.2, -0.6, 10.4, 8.5, 9.1
> CCS(=O)(=O)c1ccc2oc(SCC(=O)NC(C)C3CC4CCC3C4)nc2c1 (configuration not stated)
 : -11.2, 2127, -3.1, x, x, -5.0, 2.6
> COc1ccc(CCNc2oc(Cc3ccccc3)nc2C#N)cc1OC
 : -10.4, 3040, 16.6, 7.2, 7.6, 6.9, -0.6
> Cc1[nH]nc2c1[C@@H](c1ccccc1[N+](=O)[O-])C(C#N)=C(N)O2
 : 2.5, 2961, 0.1, 7.7, 5.6, -0.2, 0.4
> COc1ccc(N2CCN(C(=O)c3ccc(C)cc3)CC2)c([N+](=O)[O-])c1
 : -15.3, 2401, -3.0, 5.6, 3.8, 8.6, 6.2
> Cn1nc2c3ccccc3n(Cc3ccccc3)c2nc1=S
 : -28.2, 5484, -9.8, 6.8, -2.6, -1.3, -0.5
> CC/C(=N\NC(=O)c1ccc(N2CCCC2=O)cc1)c1ccccc1
 : -17.4, 3770, -11.6, x, x, x, x
> CCn1c(O)c(N=NC(=O)CNC(=O)Cc2ccccc2)c2ccccc21
 : -7.0, 4611, -3.3, -0.7, -1.3, 5.1, 2.1
> N/C(=N\OCC(=O)Nc1ccccc1)c1nonc1N
 : -16.9, 1932, 14.9, x, x, x, x
> Nc1nc(-c2ccc(NC(=O)c3ccco3)cc2)cs1
 : 66.5*, 3694, 0.2, 12.9, 4.2, 0.3, -6.6
> CCCCCn1c(=O)[nH]c2cc(C(=O)NCCN3CCC(C)CC3)ccc2c1=O
 : -1.3, 4484, 0.8, 12.7, 6.7, 3.4, -1.7
> CN(C)CCCNCCCNC(=O)c1ccccn1
 : -6.4, 4479, -9.3, 9.4, 13.9, 2.0, 1.6
> Cc1ccc(C)c2sc(N)nc12
 : -6.7, 3383, 7.2, 6.8, 13.3, 5.3, 4.2
> CCc1ccc(S(=O)(=O)Nc2c(C)n(C)n(-c3ccccc3)c2=O)cc1
 : -5.8, 3950, -3.8, 9.2, 5.1, 1.8, 1.7
> Oc1[nH]c2ccccc2c1N=Nc1nc(Nc2ccccc2)nc(N2CCOCC2)n1
 : 8.0, 4688, 10.2, 9.5, 4.5, 7.6, -6.4
> COc1ccc(OC)c2c1sc(=NC(=O)C1COc3ccccc3O1)n2C (configuration not stated)
 : -15.8, 4504, -7.6, 10.2, 1.2, 4.6, 1.1
> O=C1c2cccc3cccc(c23)C(=O)N1c1nccs1
 : -25.2, 10549, -0.6, 4.6, 2.8, 0.2, -0.7
> CCCSc1nc2sc3c(c2c(=O)n1CC)CC(C)(C)OC3
 : -16.8, 3587, 4.0, -11.0, 6.6, 3.4, 9.1
> COc1ccccc1C(=O)NN=Cc1c[nH]c2ccccc12
 : x, x, x, 11.6, 16.1, 1.8, 0.1
> O=C(CCC(=O)OCC(=O)c1cccc([N+](=O)[O-])c1)NC1CCCCC1
 : -22.1, 5960, 4.6, 3.8, -1.2, 3.6, 4.5
> CCOC(=O)c1ccc(N=c2sc(C(=O)OC)cc(=O)n2-c2ccc(C(=O)OCC)cc2)cc1
 : -5.9, 5269, -2.4, 1.2, 13.2, -12.3, 6.9
> CC(C)CC1(C(=O)NCCN2CCOCC2)C=CCN1C(=O)c1ccccc1 (configuration not stated)
 : -16.7, 3189, -1.1, 6.5, -2.5, 4.0, 2.8
> COC(=O)c1c(-c2ccccc2OC)sc2ccc(OC)cc12
 : -20.0, 2952, x, 8.0, 4.9, -3.8, 4.0
> O=C(CCN1CCN(CCO)CC1)Nc1ccc(Br)cc1
 : -19.0, 3255, 13.0, 3.6, 10.3, 6.5, -0.7
> CCOC(=O)N1CCN(C(=O)c2cc(OC)cc(OC)c2)CC1
 : -40.4, 9578, -3.7, 1.9, 1.8, 2.2, 12.5
> CN(C)C(=O)CCc1ccc2c3c([nH]c2c1)[C@]1(C)[C@@H](C(=O)N2CCCCC2)C[C@H](CC(=O)NCCCn2ccnc2)C(=O)N1CC3
 : 0.6, 3620, x, 1.3, -5.4, -1.9, 1.8
> COc1ccc(-n2c(=O)c3ccccc3n(CC(=O)NC3CCCC3)c2=O)c(OC)c1
 : -18.6, 21567*, 3.6, 6.4, 1.1, 3.2, 0.1

A second format for part of the listing above.
> CN(C)CCCNCCCNC(=O)c1ccccn1
  PrP 5UTR inh: -6.4 | Bead autofluor: 4479 | BJeLR viability: -9.3 | Mtb hypoxia rep: 9.4 | Mtb hypoxia rep growth: 13.9 | Sa RN4220 lethal: 2.0 | ugtP null kill: 1.6
> Cc1ccc(C)c2sc(N)nc12
  PrP 5UTR inh: -6.7 | Bead autofluor: 3383 | BJeLR viability: 7.2 | Mtb hypoxia rep: 6.8 | Mtb hypoxia rep growth: 13.3 | Sa RN4220 lethal: 5.3 | ugtP null kill: 4.2
> CCc1ccc(S(=O)(=O)Nc2c(C)n(C)n(-c3ccccc3)c2=O)cc1
  PrP 5UTR inh: -5.8 | Bead autofluor: 3950 | BJeLR viability: -3.8 | Mtb hypoxia rep: 9.2 | Mtb hypoxia rep growth: 5.1 | Sa RN4220 lethal: 1.8 | ugtP null kill: 1.7
